Source: PubChem BioAssay
OX1R antag-1: antagonists of human orexin 1 receptor (OX1R); O43613; OX1R-expressing cells, FRET antagonist read-out; inhibition, % at 6.6 µM; 330,000 compounds, 1.8% hits; AID 485270; in the data active means inhibition mostly above about 38%, no sharp cut-off; inactive means mostly below about 40%;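 further: 0% = agonist challenge alone and 100% = reference antagonist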
Target sequence (O43613 whole entry, looked up): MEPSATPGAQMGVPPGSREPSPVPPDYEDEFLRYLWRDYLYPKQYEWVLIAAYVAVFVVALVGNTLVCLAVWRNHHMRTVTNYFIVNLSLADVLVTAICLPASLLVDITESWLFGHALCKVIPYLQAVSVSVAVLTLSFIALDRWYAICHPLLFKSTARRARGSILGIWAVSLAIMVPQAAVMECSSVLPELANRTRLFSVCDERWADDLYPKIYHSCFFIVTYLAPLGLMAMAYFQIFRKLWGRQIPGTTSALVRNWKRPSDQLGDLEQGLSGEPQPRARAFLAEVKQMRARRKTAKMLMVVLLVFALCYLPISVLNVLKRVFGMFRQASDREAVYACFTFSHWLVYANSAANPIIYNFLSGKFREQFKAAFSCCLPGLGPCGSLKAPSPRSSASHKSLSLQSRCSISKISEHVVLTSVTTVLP
OX1R antag-2: antagonists of human orexin 1 receptor | CHO/OX1R cells, Fluo-8 calcium fluorescence, orexin A | inhibition, % at 5 µM | 330,000 compounds, 0.43% hits | AID 434989;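 active means inhibition above its plate's threshold, mean inhibition of all tested compounds on the plate plus 3 SD, cut at about 37% in these data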;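 further: 0% = orexin A challenge wells and 100% = SB-334867-A antagonist wells; not every result past the cut was called active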
* marks the source's active call; other numbers are inactive results.

The first ten entries, ahead of the listing:
`COC(=O)c1ccc(/C=C/c2c(-c3ccc(OC)cc3)oc3ccccc23)cc1` gave OX1R antag-1 20 and OX1R antag-2 2.
`CN(CC(=O)Nc1ccccc1Cl)C(=O)c1ccccc1SCC(=O)N1CCCC1` gave OX1R antag-1 7 and OX1R antag-2 -16.
CC(=O)N1c2ccc(S(=O)(=O)N3CCC(C(=O)Nc4ccccn4)CC3)cc2CC1C (stereo not given) was read as OX1R antag-1 13 and OX1R antag-2 -19.
CC(Sc1nnc(-c2ccccc2)c(-c2ccccc2)n1)C(=O)Nc1ncc(Cl)cc1Cl (stereo not given) was read as OX1R antag-1 7 and OX1R antag-2 -27.
`CC1(C)CC(n2c(NCCO)nc3c(c2=O)C2(CCCC2)Cc2ccccc2-3)CCO1` (stereo not given) gave OX1R antag-1 19 and OX1R antag-2 7.
For Cc1cc2c(cc1C)-c1c(ssc1=Nc1ccc(S(N)(=O)=O)cc1)C(C)(C)N2 the results were OX1R antag-1 3 and OX1R antag-2 7.
CN1CCN(c2nc3c(c(=O)n(C)c(=O)n3C)n2Cc2ccc(Cl)cc2)CC1 was read as OX1R antag-1 1 and OX1R antag-2 -25.
Screening CN(Cc1ccccc1)C(=O)COC(=O)c1ccc(S(=O)(=O)N(C)C)cc1 returned OX1R antag-1 -29 and OX1R antag-2 -16.
Cc1ccc(C(=O)N2CCN(Cc3ccc4c(c3)OCO4)CC2)cc1S(=O)(=O)N1CCOCC1 was read as OX1R antag-1 3 and OX1R antag-2 -26.
Screening COc1ccc(S(=O)(=O)N2CCCOC2CNC(=O)C(=O)NCCc2ccco2)cc1OC (stereo not given) returned OX1R antag-1 29 and OX1R antag-2 5.

This part in full (from the top)
`COC(=O)c1ccc(/C=C/c2c(-c3ccc(OC)cc3)oc3ccccc23)cc1` gave OX1R antag-1 20 and OX1R antag-2 2.
`CN(CC(=O)Nc1ccccc1Cl)C(=O)c1ccccc1SCC(=O)N1CCCC1` gave OX1R antag-1 7 and OX1R antag-2 -16.
CC(=O)N1c2ccc(S(=O)(=O)N3CCC(C(=O)Nc4ccccn4)CC3)cc2CC1C (stereo not given) was read as OX1R antag-1 13 and OX1R antag-2 -19.
CC(Sc1nnc(-c2ccccc2)c(-c2ccccc2)n1)C(=O)Nc1ncc(Cl)cc1Cl (stereo not given) was read as OX1R antag-1 7 and OX1R antag-2 -27.
`CC1(C)CC(n2c(NCCO)nc3c(c2=O)C2(CCCC2)Cc2ccccc2-3)CCO1` (stereo not given) gave OX1R antag-1 19 and OX1R antag-2 7.
For Cc1cc2c(cc1C)-c1c(ssc1=Nc1ccc(S(N)(=O)=O)cc1)C(C)(C)N2 the results were OX1R antag-1 3 and OX1R antag-2 7.
CN1CCN(c2nc3c(c(=O)n(C)c(=O)n3C)n2Cc2ccc(Cl)cc2)CC1 was read as OX1R antag-1 1 and OX1R antag-2 -25.
Screening CN(Cc1ccccc1)C(=O)COC(=O)c1ccc(S(=O)(=O)N(C)C)cc1 returned OX1R antag-1 -29 and OX1R antag-2 -16.
Cc1ccc(C(=O)N2CCN(Cc3ccc4c(c3)OCO4)CC2)cc1S(=O)(=O)N1CCOCC1 was read as OX1R antag-1 3 and OX1R antag-2 -26.
Screening COc1ccc(S(=O)(=O)N2CCCOC2CNC(=O)C(=O)NCCc2ccco2)cc1OC (stereo not given) returned OX1R antag-1 29 and OX1R antag-2 5.
`CCOC(=O)CCC(=O)Nc1ccc(S(=O)(=O)Nc2cc(OC)nc(OC)n2)cc1` gave OX1R antag-1 0 and OX1R antag-2 -5.
`Cc1cc(=O)oc2cc(OCC(=O)OCC(=O)N3CCC(C)CC3)ccc12` gave OX1R antag-1 3 and OX1R antag-2 -15.
Screening CSc1ccc(Cl)c(C(=O)OCC(=O)NCc2ccco2)c1 returned OX1R antag-1 19 and OX1R antag-2 -24.
Screening CN(NC(=O)c1ccc(Cl)cc1)c1nc(-c2ccccc2)nnc1C(F)(F)F returned OX1R antag-1 63 and OX1R antag-2 3.
`COc1ccc(O)c(C(c2c(C)[nH][nH]c2=O)c2c(C)[nH][nH]c2=O)c1` gave OX1R antag-1 14 and OX1R antag-2 -11.
Screening COc1ccc(S(=O)(=O)NC2CC(=O)N(c3cccc(F)c3)C2)cc1OC (stereo not given) returned OX1R antag-1 24 and OX1R antag-2 -16.
Screening CCC(Oc1ccccc1)C(=O)Nc1ccccc1C(=O)N1CCCCC1 (stereo not given) returned OX1R antag-1 10 and OX1R antag-2 -21.
`Cc1cc(-c2ccccc2)[nH]c(=O)c1S(=O)(=O)c1ccccc1` gave OX1R antag-1 29 and OX1R antag-2 -27.
Screening COc1cccc(-c2nc(CS(=O)CC(=O)NC3CCCC3)c(C)o2)c1 (stereo not given) returned OX1R antag-1 2 and OX1R antag-2 -20.
Screening O=C(NCc1ccco1)C(=O)c1cn(CC(=O)N2CCCCC2)c2ccccc12 returned OX1R antag-1 4 and OX1R antag-2 -20.
`C=CCNC(=O)NC(=O)CSc1nc2cc([N+](=O)[O-])ccc2n1-c1cccc(C(F)(F)F)c1` gave OX1R antag-1 25 and OX1R antag-2 -19.
Cc1cccc(NC(=O)C2CCN(S(=O)(=O)c3c(C)noc3/C=C/c3ccco3)CC2)n1 was read as OX1R antag-1 11 and OX1R antag-2 -9.
Screening Nc1c(Cl)cc(NC(=O)c2ccccc2C(=O)O)cc1Br returned OX1R antag-1 19 and OX1R antag-2 -3.
`Cc1ccc(NC(=O)Cn2c(=O)n(Cc3ccco3)c(=N)c3c4c(sc32)COC(C)(C)C4)cc1` gave OX1R antag-1 23 and OX1R antag-2 -21.
CCn1c(Cc2ccccc2)nnc1SCC(=O)NC(C)(C)C was read as OX1R antag-1 7 and OX1R antag-2 -7.
Screening CC(Sc1nc2ccccc2[nH]1)C(=O)NC1CCCCC1C (stereo not given) returned OX1R antag-1 3 and OX1R antag-2 -30.
Cc1c(CC(=O)NCCCC(=O)O)c(=O)oc2c(C)c3oc4c(c3cc12)CCCC4 was read as OX1R antag-1 4 and OX1R antag-2 -12.
Cc1cccc(C(=O)NCCCNC(=O)c2ccccn2)c1 was read as OX1R antag-1 10 and OX1R antag-2 -12.
For Cc1cc(C)nc(SCC(=O)NC2=NC(=O)C(C)S2)n1 (stereo not given) the results were OX1R antag-1 19 and OX1R antag-2 -4.
CC(/C=N/NC(=O)c1cnccn1)=C\c1ccco1 was read as OX1R antag-1 14 and OX1R antag-2 -11.
Screening Cc1cc(O)c(C(C)C)cc1NC(=O)Nc1cccc2ccccc12 returned OX1R antag-1 6 and OX1R antag-2 -17.
Cc1cc(OCC(=O)NC(C)c2ccccc2)ccc1[N+](=O)[O-] (stereo not given) was read as OX1R antag-1 15 and OX1R antag-2 -1.
`COc1cccc2c1OC1(C)CC2NC(=O)N1c1cccc(C(=O)N2CCN(c3ccccc3)CC2)c1` (stereo not given) gave OX1R antag-1 12 and OX1R antag-2 -19.
For CCOc1ccccc1C1CC(c2cccc(NS(C)(=O)=O)c2)=NN1C(=O)c1ccccc1 (stereo not given) the results were OX1R antag-1 14 and OX1R antag-2 -12.
Screening COc1ccccc1NS(=O)(=O)c1cc(NC(=O)Nc2cccc(C)c2)ccc1N1CCCCC1 returned OX1R antag-1 12 and OX1R antag-2 -23.
For Cc1cccc(Cn2cnc3ccccc32)c1 the results were OX1R antag-1 17 and OX1R antag-2 -4.
COc1ccccc1C1=NOC(Cn2c(=O)c3c(ncn3C)n(C)c2=O)C1 (stereo not given) was read as OX1R antag-1 7 and OX1R antag-2 -19.
For CCN(CC)S(=O)(=O)c1cc(NC(=O)CSc2nccn2C)ccc1C the results were OX1R antag-1 40 and OX1R antag-2 -17.
For CC(C)C1Nc2ccc(S(N)(=O)=O)cc2C2C=CCC21 (stereo not given) the results were OX1R antag-1 2 and OX1R antag-2 -7.
CCOC(=O)/C=C/C(=O)Nc1ccc(S(=O)(=O)N2CCc3ccccc32)cc1 was read as OX1R antag-1 0 and OX1R antag-2 7.
For CN(C)S(=O)(=O)c1ccc2c(c1)C(CC(=O)O)OC2=O (stereo not given) the results were OX1R antag-1 14 and OX1R antag-2 8.
For COc1ccc(CN2CCN(S(=O)(=O)c3ccc(F)cc3)CC2)c(OC)c1OC the results were OX1R antag-1 3 and OX1R antag-2 -21.
For CCOc1cc(CNCc2cccs2)cc(Br)c1OC the results were OX1R antag-1 40 and OX1R antag-2 -18.
`COc1cc2c(cc1OC)C(=O)Cc1ccc3c(c1CN(C)CC2)OCO3` gave OX1R antag-1 8 and OX1R antag-2 15.
Screening Cn1cc(CN2CCC[C@H]2CO)c(-c2cccc(Cl)c2)n1 returned OX1R antag-1 31 and OX1R antag-2 -11.
Screening CC(C)C(=O)N1CCN(c2ccccc2N)CC1 returned OX1R antag-1 17 and OX1R antag-2 -6.
`C=CCN(c1ccccc1)S(=O)(=O)c1cccc(C(=O)NCc2ccncc2)c1` gave OX1R antag-1 21 and OX1R antag-2 -33.
`COc1ccc(C2=NOC3(CC(=O)N(c4ccc(C)cc4)C3=O)C2)cc1` (stereo not given) gave OX1R antag-1 19 and OX1R antag-2 -25.
`COc1ccc(NC(=O)CC2C(=O)N(c3cccc(C)c3)C(=O)N2C2CCCCC2)cc1` (stereo not given) gave OX1R antag-1 9 and OX1R antag-2 -22.
For Cn1c(=O)oc2cc(S(=O)(=O)Nc3ccc(Cl)cc3F)ccc21 the results were OX1R antag-1 13 and OX1R antag-2 -19.
CCCN1CCN(C(=O)c2ccc(Sc3ccc(C)cc3)c(NC(C)=O)c2)CC1 was read as OX1R antag-1 16 and OX1R antag-2 -20.
`FC(F)(F)c1nnc2sc(-c3cccs3)nn12` gave OX1R antag-1 22 and OX1R antag-2 -12.
For Cc1ccccc1CSCCNC(=O)CCSc1ccccc1 the results were OX1R antag-1 12 and OX1R antag-2 -19.
For N#Cc1c(C(F)(F)F)cc(C2CC2)nc1N1CCCC1 the results were OX1R antag-1 -2 and OX1R antag-2 -9.
`CCNC(=S)N/N=C1\CCCCc2ccccc21` gave OX1R antag-1 26 and OX1R antag-2 -2.
O=C(NNC(=O)c1ccncc1)NC1CCCCC1 was read as OX1R antag-1 9 and OX1R antag-2 -12.
CCOC(=O)COc1ccc(C(=O)c2ccccc2)c(O)c1 was read as OX1R antag-1 10 and OX1R antag-2 3.
Screening CCc1ccccc1NC1=NCC(=O)N1Cc1ccc2c(c1)OCO2 returned OX1R antag-1 -9 and OX1R antag-2 -11.
For CC1(C(=O)NC2CCCCCCC2)CCC(=O)N1Cc1ccco1 (stereo not given) the results were OX1R antag-1 17 and OX1R antag-2 -13.
CCOC(=O)c1cccc(NC(=O)/C(=C\c2ccccc2)NC(=O)c2ccccc2Cl)c1 was read as OX1R antag-1 26 and OX1R antag-2 -31.
For CCn1cc(C(=O)NCc2ccco2)c(=O)c2cc(S(=O)(=O)N3CC(C)CC(C)C3)ccc21 (stereo not given) the results were OX1R antag-1 11 and OX1R antag-2 -34.
`O=C(Nc1ccccc1)Nc1ccccc1C(=O)NCC1CC1` gave OX1R antag-1 12 and OX1R antag-2 -27.
Screening COc1ccc(CNC(=O)c2ccc3c(c2)NC(=O)C(C)S3)cc1 (stereo not given) returned OX1R antag-1 11 and OX1R antag-2 -15.
Screening N=c1ccn(Cc2cccc(F)c2)cc1 returned OX1R antag-1 2 and OX1R antag-2 -1.
CCOc1cc(S(=O)(=O)Nc2ncn[nH]2)ccc1Br was read as OX1R antag-1 8 and OX1R antag-2 14.
For CC1Cc2ccccc2N1C(=O)CSc1nnc(NC(=O)Cc2cccs2)s1 (stereo not given) the results were OX1R antag-1 11 and OX1R antag-2 0.
For Cc1ccc(S(=O)(=O)N2CCN(C(=O)c3cccs3)CC2)cc1C the results were OX1R antag-1 13 and OX1R antag-2 -34.
Cc1cc(=O)[nH]c(SCC(=O)Nc2nc(-c3ccccc3)c(-c3ccccc3)o2)n1 was read as OX1R antag-1 12 and OX1R antag-2 -8.
c1ccc2c(c1)nnn1c3ccccc3nc21 was read as OX1R antag-1 28 and OX1R antag-2 -13.
For O=C(OCc1ccccc1)/C(=C/c1ccc(Cl)cc1)NC(=O)c1ccccc1Cl the results were OX1R antag-1 5 and OX1R antag-2 -29.
For COc1ccc(S(=O)(=O)N(CC(C)C)C2CCS(=O)(=O)C2)cc1OC (stereo not given) the results were OX1R antag-1 15 and OX1R antag-2 9.
Screening O=C(O)CN1C2=NCCCN2c2ccccc21 returned OX1R antag-1 10 and OX1R antag-2 1.
O=C(NC1CCCCC1)C1COc2ccccc2O1 (stereo not given) was read as OX1R antag-1 16 and OX1R antag-2 -21.
Screening CC(=O)C1=C(C)NC(SCC(=O)c2ccccc2)=C(C#N)C1CC(C)C (stereo not given) returned OX1R antag-1 9 and OX1R antag-2 -25.
O=C(COC(=O)c1nc(Cl)ccc1Cl)NCCc1ccccc1 was read as OX1R antag-1 17 and OX1R antag-2 -5.
CC(=O)c1ccc(NS(=O)(=O)c2ccc3c(c2)N(C)CCO3)cc1 was read as OX1R antag-1 27 and OX1R antag-2 -16.
Cc1ccc(/C=N/Nc2ccc3c(C(F)(F)F)cc(C(F)(F)F)nc3n2)cc1 was read as OX1R antag-1 4 and OX1R antag-2 2.
Screening Cc1ccc(S(=O)(=O)n2nc(OC(=O)c3ccco3)cc2N)cc1 returned OX1R antag-1 5 and OX1R antag-2 5.
CSc1ncccc1C(=O)Nc1nc2c(C)cccc2s1 was read as OX1R antag-1 40 and OX1R antag-2 -29.
COC(=O)Nc1ccc(S(=O)(=O)NC2CCCCC2)cc1 was read as OX1R antag-1 1 and OX1R antag-2 -5.
Screening N#Cc1c(NC(=O)CSc2nnc(-c3ccncc3)n2CC2CCCO2)sc2c1CCCC2 (stereo not given) returned OX1R antag-1 38 and OX1R antag-2 -36.
O=C(O)c1ccc2c(c1)C(=O)N(CCc1ccccc1)C2=O was read as OX1R antag-1 20 and OX1R antag-2 -9.
Screening CCc1nc(NCCN2CCOCC2)c2oc3ccccc3c2n1 returned OX1R antag-1 35 and OX1R antag-2 -27.
For O=C(COc1ccccc1Cl)NCc1ccccc1 the results were OX1R antag-1 18 and OX1R antag-2 -9.
`O=C(NCc1cccs1)C1CCCN1C(=O)Nc1ccccc1` (stereo not given) gave OX1R antag-1 6 and OX1R antag-2 -25.
Cc1c(Cl)cccc1NCC(=O)Nc1ccc(Cl)cc1F was read as OX1R antag-1 11 and OX1R antag-2 -24.

An excerpt; most or all hits stand in other tables.
